Vaccinia Venus: inhibitors of vaccinia virus (Venus reporter). Vaccinia virus Venus reporter expression, fluorescence. Potency, µM (top dose mostly 36.5 µM), inactives show top-dose activity change, negative = inhibition, hits mostly inhibitors. actives 0.46% (n = 330,000); active means well fitted inhibition curve with a large enough effect; inconclusive means small, poorly fitted or top-dose-only effect; inactive means no such curve, though single readings can be large or run the other way; tested in A549 cells; also: nearly all actives have a fitted effect of over 30% in size; inactives centre near -10
VACV mCherry inh: vaccinia inhibition (mCherry reporter). actives 0.63% (n = 310,000). Vaccinia virus mCherry reporter infection, fluorescence; about a quarter of the inactives have no number. Potency, µM (series often up to 36.5 µM), for the others: at the highest dose activity change, negative = inhibition, most hits filed as inhibitors; active = well fitted inhibition curve with a large enough effect; inconclusive = small, poorly fitted or top-dose-only effect; inactive = no such curve, though single readings can be large or run the other way; tested in A549 cells; also: nearly all actives have a fitted effect of over 35% in size; inactives centre near -10
The depositor's hits bear a star; i = inactive; ? = inconclusive; / = no result given; & = joins results of further samples; [ ] = another dose, or the depositor's remark. % is scaled to controls: 0 for no effect and ±100 for the full control effect; potency is read from the fitted curve at half-maximal effect.

#	molecule	Vaccinia Venus	VACV mCherry inh
1	CCCS(=O)(=O)N1CCN(c2cc3c(cc2[N+](=O)[O-])n(C)c(=O)n3C)CC1	-2%	-7%
2	COc1cc(OC)c2c(C)c(CC(=O)NCCc3ccccc3OC)c(=O)oc2c1	2%	2%
3	COc1ccc(OC)c(-c2cc(C(=O)Nc3c(C)nn(Cc4ccc(C)cc4)c3C)no2)c1	-30%	-31%
4	CSc1nnc(-c2sc3cc(C(F)(F)F)cnc3c2-c2ccccn2)n1C	3%	-9%
5	Cc1cccc(N(Cc2cc(=O)[nH]c3ccccc23)C(=O)CCl)c1	13µM*	?
6	CN1C(=CC=C2C=C(I)C(=O)C(I)=C2)C(C)(C)c2ccccc21	480%[activator]	198%[activator]
7	COc1ccc2c3c(ccc2c1)C(=O)/C(=C/O)CC3	-3%	-22%
8	CCCCCCCCCCCCN1C/C(=C\C(=O)OCC)c2cc(C(F)(F)F)ccc2S1(=O)=O	-6%&-14%	i
9	COc1ccc(N2CCN(C(=O)c3c(C)nn(-c4ccc(F)cc4)c3-n3cccc3)CC2)cc1	0%	-16%
10	CCC1CN(C(=O)N2CCC(C(=O)N3CCN(c4cccc(C)c4C)CC3)CC2)c2ccccc2O1 (stereo not given)	-27%	-22%
11	CC(C)CCNC(=O)c1ccc2c(c1)NC(=O)C(CS(=O)(=O)Cc1ccc(F)cc1)N2 (stereo not given)	-7%	-6%
12	CCN(C(=O)Cn1c(=O)oc2cc(Cl)ccc21)c1cccc(C(F)(F)F)c1	4%	-9%
13	CN(CC(=O)O)S(=O)(=O)/C=C/c1ccccc1	-4%	i
14	O=C(CSc1ncccc1C(=O)Oc1ccccc1Cl)Nc1ccccc1Cl	-10%[7.34 µM]	-14%[7.34 µM]
15	CN(C)NC(=O)c1ccsc1NC(=O)c1ccc(S(=O)(=O)N2CCCC2)cc1	-20%	-25%

Going on with the list:
#	molecule	Vaccinia Venus	VACV mCherry inh
16	O=C(CCS(=O)(=O)c1cccs1)Nc1ccc(C(=O)Nc2ccccc2F)cc1	-16%	-20%
17	COc1ccc(CNc2nc(-c3ccco3)nn2S(=O)(=O)c2ccc3ccccc3c2)cc1OC	-9%	-11%
18	CC(=O)Nc1c(Br)cc2c(c1Br)C(=O)c1ccccc1-2	-10%	0%
19	CCc1ccccc1NC(=O)CSc1nnc(-c2ccccc2)c(-c2ccccc2)n1	-3%	-11%
20	O=C(CN1C(=O)c2cccnc2Oc2ccc(Cl)cc21)NC1CCCCCC1	-12%	-13%
21	N#CC1=C(S)N(c2ccccc2)C(c2ccco2)NC1=O (stereo not given)	12%	i
22	COc1ccc(S(=O)(=O)N2CCCC2)c2ccccc12	-10%	-12%
23	CCC(C)CN1C(=O)CN(S(C)(=O)=O)CC1(C)C(=O)Nc1c(C)cccc1C (stereo not given)	-5%	?
24	COc1ccc(-c2cc(C(=O)Nc3ccc(C)cc3)no2)cc1	-8%	i
25	COc1ccc(C(C(=O)NC2CCCCC2)N(C(=O)c2snc(C(N)=O)c2N)c2ccc(OC)cc2OC)cc1 (stereo not given)	-10%	-12%
26	COc1cc2ccc(C=O)cc2cc1OC	-14%	i
27	COc1cc(Cl)ccc1OCc1cc(C(=O)N2CCCC(OC)C2)no1 (stereo not given)	-13%	-15%
28	CCc1ccc(NC2=NCC(c3ccccc3)S2)cc1 (stereo not given)	-9%	-9%
29	COc1ccc(-c2onc(C)c2C)cc1S(=O)(=O)NCCc1ccco1	?	?
30	COc1cc(OC)c2ccc(=O)oc2c1C(CCN1CCCCC1)c1ccc(N(C)C)cc1 (stereo not given)	-16%	?

Remaining list, next part
#	molecule	Vaccinia Venus	VACV mCherry inh
31	CCCOc1ccc(/C=N\NC(=O)CCc2n[nH]c(=O)[nH]c2=O)cc1OC	-7%	i
32	COc1ccc(NS(=O)(=O)c2cccc(C(=O)NCCCn3ccnc3)c2)cc1	-21%	-14%
33	CCc1cc(-c2nnc(SCC(=O)NC3CC3)n2C)cs1	-9%	i
34	CCCCCC(=O)NNC(=O)Cc1ccc([N+](=O)[O-])cc1	2%	2%
35	Cc1cc2nc(N3CCN(C(=O)c4cccs4)CC3)sc2cc1C	-4%	-6%
36	CCCCCC1CC(/C(C)=N/NC(N)=O)OC1=O (stereo not given)	-16%	/
37	CCC(C)Nc1nc(OCC(F)(F)F)nc(OCC(F)(F)F)n1 (stereo not given)	1%	-7%
38	C/C(=N/NS(=O)(=O)c1ccc(Br)cc1)c1c[nH]c2ccccc12	-10%	-1%
39	CC1(C)Cc2cccc(OCC(O)CN3CCN(c4ccccn4)CC3)c2O1 (stereo not given)	-14%	/
40	COc1ccccc1N(C)S(=O)(=O)c1ccc(C(=O)OCC(=O)NCc2cccs2)cc1	-10%	-25%
41	Cc1cccc(CNc2ccc(C(CC(N)=O)NC(=O)c3ccccc3)cc2[N+](=O)[O-])c1 (stereo not given)	-24%	?
42	COC(=O)c1ccccc1NC(=O)c1ccc(=O)n(Cc2cccc(C)c2)c1	-2%	-11%
43	CCN(C(=O)CSc1ccc2c(c1)OCCO2)C1CCS(=O)(=O)C1 (stereo not given)	8%	-7%
44	CC(C)(C)OC(=O)N[C@H](Cc1ccccc1)C(=O)N1CCC(C(=O)O)CC1	-15%	-14%[1.46 µM]
45	CC(=O)C1C2c3ccccc3O[C@@]1(C)N=c1s/c(=C/c3ccoc3)c(=O)n12 (stereo not given in full)	-7%	-18%

(more compounds)
#	molecule	Vaccinia Venus	VACV mCherry inh
46	O=C(CCN1CCOCC1)NNC(=O)c1ccc([N+](=O)[O-])cc1[N+](=O)[O-]	-6%	i
47	CC(C)CCN1CCC(N)=NC1=O	3%	13%
48	O=C(NCC(O)c1ccc([N+](=O)[O-])cc1)c1cccc(S(=O)(=O)N2CCCC2)c1 (stereo not given)	5%	6%
49	COC(=O)C1(C)CCCC2(C)C3CCC(C(C)C)C(CO)C3C(CO)CC12 (stereo not given)	-24%	-13%
50	COc1cccc(NC(=O)CSc2ncc(S(=O)(=O)c3ccccc3)c(=O)[nH]2)c1	-3%	-14%
51	CCCn1c(N)c(C(=O)CSc2nnc(C3CC3)n2C2CC2)c(=O)[nH]c1=O	-18%	-16%
52	Cc1ccc(SCC(=O)OCC(=O)N(C)CC(=O)Nc2ccc(F)cc2)cc1	-8%	i
53	COC(=O)c1cc2oc(C)cc2n1CC(=O)Nc1ccc(C)cc1C	-3%	-6%
54	COc1ccccc1C=NNC(=O)C(=O)NN=Cc1ccccc1OC	-11%	-4%
55	O=C(Cn1c(=O)oc2ccccc21)c1ccccc1	-7%	/
56	O=C(O)CCn1cc(C=C2C(=O)NC(=S)NC2=O)c(-c2ccccc2)n1	1%	-11%
57	NCC(=O)CCC(=O)O	-11%&-2%	i
58	ClC(Cl)c1nnc(-c2ccccc2)c(-c2c[nH]c3ccccc23)n1	?	?
59	c1ccc(CC2CCN(Cc3nc(-c4ccccc4)no3)CC2)cc1	-9%	-16%
60	Cc1cccc(NC(=O)c2ccc3snnc3c2)c1C	-3%	-9%

The list continues:
#	molecule	Vaccinia Venus	VACV mCherry inh
61	CCC(=O)N1CCC(C)(C(=O)Nc2nccc3ccccc23)C1 (stereo not given)	-1%	i
62	CCOC(=O)Cc1ccc(NC(=O)N2CC(C)Oc3ccc(Cl)cc32)cc1 (stereo not given)	-3%	-1%
63	COc1ccc(OCc2cc(C(=O)N(C)Cc3cnccn3)no2)c(Cl)c1	-12%	i
64	O=C(Cc1cccs1)Nn1c(Cc2cccs2)nc2ccccc2c1=O	-12%	-12%
65	C=CCn1c(NCCc2ccccc2)nc2c1c(=O)n(C)c(=O)n2C	?	?
66	COc1ccc2c(c1)C=C(CN1CCN(Cc3ccccc3C)C(CCO)C1)CO2 (stereo not given)	-8%	-23%
67	O=C(CSCc1ccccc1Cl)NCCSc1ccccn1	-10%	-24%
68	COc1ccc(CCNC(=O)c2ccc3c(c2)c(C)c(C)n3Cc2ccccc2)c(OC)c1OC	-7%	i
69	COc1ccc(CN2CCN(C)CC2)cc1OCc1ccccc1	-8%	-8%
70	Cc1cccc(OCc2nc3c4c(ncn3n2)-c2ccccc2CC42CCCC2)c1	-11%	i
71	O=C(O)CC1C(=O)OCN1C(=O)OCc1ccccc1 (stereo not given)	-6%	-17%
72	Cc1ccc2c(CNCCc3ccco3)c(C(=O)O)n(Cc3ccc(F)cc3)c2c1	5%	4%
73	Cc1ccc(S(=O)(=O)Nc2ccc3c(c2)C(=O)N([C@H](C)CO)C[C@@H](C)[C@@H](CN(C)C(=O)Nc2cccc4ccccc24)O3)cc1	-14%	-25%
74	Cc1ccc(NC(=O)c2ccn(C(=O)Nc3ccccc3)n2)c(C)c1	3%	-7%
75	O=C1CC(c2ccccc2Cl)=NN(c2ncnc3ccccc23)C1=O	1%	0%

Another view of part of the listing above:
Every second line gives: Vaccinia Venus, VACV mCherry inh
64: O=C(Cc1cccs1)Nn1c(Cc2cccs2)nc2ccccc2c1=O
→ -12%, -12%
74: Cc1ccc(NC(=O)c2ccn(C(=O)Nc3ccccc3)n2)c(C)c1
→ 3%, -7%

A section taken from the entries so far, as a working copy:
#	molecule	Vaccinia Venus	VACV mCherry inh
16	O=C(CCS(=O)(=O)c1cccs1)Nc1ccc(C(=O)Nc2ccccc2F)cc1	-16%	-20%
17	COc1ccc(CNc2nc(-c3ccco3)nn2S(=O)(=O)c2ccc3ccccc3c2)cc1OC	-9%	-11%
18	CC(=O)Nc1c(Br)cc2c(c1Br)C(=O)c1ccccc1-2	-10%	0%
19	CCc1ccccc1NC(=O)CSc1nnc(-c2ccccc2)c(-c2ccccc2)n1	-3%	-11%
20	O=C(CN1C(=O)c2cccnc2Oc2ccc(Cl)cc21)NC1CCCCCC1	-12%	-13%

Additional structures follow:
#	molecule	Vaccinia Venus	VACV mCherry inh
76	Cn1nnnc1SCC(=O)Nc1cccc(S(=O)(=O)N2CCCCC2)c1	-11%	i
77	CN(C)c1cccc2ccccc12	-8%	-19%
78	Cc1ccc(CS(=O)Cc2ccc(C(=O)NC3CCC(C)CC3)o2)cc1 (stereo not given)	-4%	-11%
79	CC1Cc2ccccc2N1CC(=O)Nc1ccc(S(N)(=O)=O)cc1 (stereo not given)	-1%	?
80	CCOc1ccc2nc(SCC(=O)N3c4ccccc4Sc4ccccc43)c(C#N)cc2c1	2%	-16%
81	COc1ccc(CNC(=O)C23CC4CC(CC(Br)(C4)C2)C3)cc1	0%	-10%
82	COc1ccccc1NC(=O)Cc1c(C(=O)O)[nH]c2ccc(Cl)cc12	-6%[7.34 µM]	-4%[7.34 µM]
83	CN(C)CCNC(=O)c1coc(=O)c(Br)c1	5%	-11%
84	Cc1cccc(C2=NN(c3ccccc3)[C@@H](C(=O)N3CCOC3=O)[C@@H]2c2ccc(F)cc2)c1	-21%	i
85	COc1cccc(-c2nc(SCC(=O)N3CCc4ccccc43)c3c(=O)n(C)c(=O)n(C)c3n2)c1	-8%	-8%
86	C=C1SC(=Nc2c(C)cc(C)cc2C)N(C(=O)c2sc3ccccc3c2Cl)C12CCCCC2	-14%	-2%
87	CCC(=O)Nc1nonc1-c1nc2ccccc2n1CC(C)C	-5%	-12%
88	Cc1ccc(CN2C(=O)CSC(C)C2=O)cc1 (stereo not given)	-10%	i
89	CCc1cc2c(cc3c(=O)n(CC(=O)N4CCN(c5cc(Cl)ccc5C)CC4)nc(CC)n32)s1	-8%	-10%
90	CC(NC(=O)c1ccc2nc(CCc3ccccc3)oc2c1)c1ccccc1 (stereo not given)	-8%	-7%

Next part.
#	molecule	Vaccinia Venus	VACV mCherry inh
91	CCC1=NN2C(=N)/C(=C/c3cc(C)n(-c4ccccc4)c3C)C(=O)N=C2S1	-4%	-5%
92	COc1cccc(CNC(=O)c2c(OC)cc(=O)n3c2CCN(C(=O)C2CC24CCCC4)CC3)c1 (stereo not given)	4%	-10%
93	CCCn1c(=NC(C)=O)c(C(=O)OCC)cc2c(=O)n3ccccc3nc21	1%	-28%
94	O=C(Nc1ccc([N+](=O)[O-])cc1)C1CC1(c1ccccc1)c1ccccc1 (stereo not given)	-17%	1%
95	CCOC(=O)c1c(C)[nH]c(C)c1C(=O)CSc1nc2ccccc2[nH]1	-9%	-4%
96	CC(C)COC(=O)C1C2C=CC3(CN(C4CCCC4)C(=O)C13)O2 (stereo not given)	4%	1%
97	CCOC(=O)C1CCN(C(=O)c2ccc3c(c2)C(=O)N(c2ccccc2C)C3=O)CC1	-6%	-16%
98	COc1cc(=O)n2c(c1C(=O)NCc1ccc3c(c1)OCO3)CCN(C(=O)c1ccccc1F)CC2	4%	-9%
99	COc1ccc(CCNCc2ccc(SC)cc2)cc1	-12%	i
100	COc1ccccc1NC(=O)c1sc2nc(-c3ccco3)ccc2c1N	-8%	-13%
101	Cc1ccc(NC(=O)COC(=O)CNC(=O)c2ccc(C)s2)cc1	-16%	0%
102	Cc1cc(C)cc(OCC(=O)Nc2cc(C)on2)c1	-14%	i
103	O=C(c1ccc(Br)cc1)N(Cc1cccs1)c1ccc(F)cc1	5%	7%
104	O=[N+]([O-])c1ccc(OCc2nnc(-c3ccccc3)o2)cc1	-1%	-2%
105	Cc1cc(C)c(S(=O)(=O)N2CCN(C(=O)C(C)Cn3nc(C)nc3C)CC2)c(C)c1 (stereo not given)	-5%	-13%
106	O=C(NCC1CCCO1)c1ccc(/C=N/O)nc1 (stereo not given)	-4%	-19%
107	CN1C(=O)CCC2(C)C1=CCC1C2CCC2(C)C1CCC2(C)O (stereo not given)	-4%	-10%
108	CCOc1cc2[nH]c(=O)n(CCCCC(=O)N3CCN(c4cccc(Cl)c4)CC3)c(=O)c2cc1OCC	?	?

High-throughput results: PubChem, National Center for Advancing Translational Sciences (NCATS)
